# gsp antagonist: gsp mutant antagonism; gsp-mutant cells, cAMP HTRF, 30 min; control for the full effect not named in the record; Potency, µM (doses to about 76.9 µM), for the others: at the top dose activity change, negative = inhibition, most hits filed as inhibitors; 340,000 tested, 0.4% active; active = falling curve of any shape with a large fitted effect; inconclusive = falling curve, mostly with a smaller effect; inactive = flat or rising curve; cell line not stated here;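 further: intracellular cAMP measured with PDE inhibitor Ro 20-1724 present during compound exposure; potency means the concentration at half of the fitted maximal effect; on the % scale 0 is the no-effect control and ±100 the full control effect; nearly all actives have a fitted effect of over 65% in size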
#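 Measurement of cellular cAMP by homogeneous time-resolved fluorescence following a 30 min compound exposure at 37C. The PDE inhibitor […] was present throughout; the assay buffer was DPBS with 0.05% BSA and 0.005% Tween 20.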
# Menin MLL FP FL: displaces fluorescein MLL peptide from human menin. Fluorescence polarization, fluorescein-MLL peptide displacement from menin. FP activity change, % at 61.4 µM. 290,000 tested, under 10 active. AID 1766; inconclusive = falling polarisation curve, or a change in total fluorescence; inactive = total fluorescence flat and polarisation flat or rising; no compound was filed as active; the % refers to the polarisation; negative = inhibition;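 further: % of control where 0% means no effect; inhibitors lower the polarisation; unlabelled MLL peptide was the positive control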
# TRPML1 agonist: human mucolipin-1 channel agonism; 410,000 tested, 0.12% active; AID 624414; Q9GZU1; TRPML1-expressing cells, Ca2+ dye fluorescence, FDSS; host cell line not named in the record; reference of the full effect not given here; activation, % (no concentration beside the values); in the data active = activation above about 50%; inconclusive = about 30% to 50%; inactive = below about 30%; further: 0% is about no effect; the text of the record puts the active cut at 80%
# Target sequence (Q9GZU1 whole entry, looked up): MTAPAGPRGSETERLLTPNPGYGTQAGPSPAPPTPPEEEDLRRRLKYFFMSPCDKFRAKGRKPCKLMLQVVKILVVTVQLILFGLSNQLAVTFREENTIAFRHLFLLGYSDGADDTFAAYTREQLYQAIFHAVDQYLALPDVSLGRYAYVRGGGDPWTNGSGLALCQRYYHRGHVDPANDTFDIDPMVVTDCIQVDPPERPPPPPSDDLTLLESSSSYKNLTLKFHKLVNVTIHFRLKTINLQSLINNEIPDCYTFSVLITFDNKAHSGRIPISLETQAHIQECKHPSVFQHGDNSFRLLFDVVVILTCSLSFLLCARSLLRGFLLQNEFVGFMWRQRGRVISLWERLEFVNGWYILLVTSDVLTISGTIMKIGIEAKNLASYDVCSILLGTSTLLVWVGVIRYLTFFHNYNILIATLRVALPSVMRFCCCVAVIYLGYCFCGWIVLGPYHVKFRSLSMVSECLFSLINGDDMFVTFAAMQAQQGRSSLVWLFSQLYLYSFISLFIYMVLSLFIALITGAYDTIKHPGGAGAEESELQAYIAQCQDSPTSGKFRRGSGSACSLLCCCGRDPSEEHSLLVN
#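 Kinetic FDSS Ca2+ read in Tet-induced TRPML1-DL cells (ABD Ca8 dye plus quencher, 45-90 min RT loading): baseline, then compound, then 110 s agonist window; EC80 agonist 54-4 at 4uM final added afterwards for a 110 s antagonist window.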
# ClpP mod: qHTS Assay for Activators of ClpP; Potency, µM (series often up to 57.5 µM), for inactives: top-dose activity change, negative = active; AID 651965, 2013; 340,000 tested, 1.9% active; ATP-dependent Clp protease proteolytic subunit (Bacillus subtilis (strain 168)), P80244; purified B. subtilis ClpP, FRET peptide cleavage, 20 min; active = well fitted falling curve with a large enough effect; inconclusive = small, poorly fitted or top-dose-only effect; inactive = no such curve, though single readings can be large or run the other way; further: potency means the concentration at half of the fitted maximal effect; the source files actives as falling curves though it sought activators and does not explain the sign; nearly all actives have a fitted effect of over 65% in size; many hits overshoot -100%
# Target sequence (P80244 whole entry, looked up): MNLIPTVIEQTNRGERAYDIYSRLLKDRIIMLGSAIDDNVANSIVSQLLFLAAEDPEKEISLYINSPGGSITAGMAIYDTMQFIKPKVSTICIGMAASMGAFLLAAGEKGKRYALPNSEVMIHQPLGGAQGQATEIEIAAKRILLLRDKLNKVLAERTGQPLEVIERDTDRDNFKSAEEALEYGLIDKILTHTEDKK
#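 ClpP 10 microg/mL final, pH 8 Tris/KCl buffer with BSA, glycerol, Tween-20; compound pinned in; FRET-FV substrate; RT 20 min; Ex320/Em430; ΔFRET vs ADEP 5.8 microM, DMSO, no enzyme.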
# TRPML1 inh: human mucolipin-1 channel inhibition; Q9GZU1; TRPML1-inducible cells, Ca2+ dye fluorescence, FDSS; active compounds read low; inhibition of EC80 agonist-evoked calcium signal; activity change, negative = inhibition, % (concentration not given with the values); 390,000 tested, 0.02% active; AID 624415; in the data active means activity change below about -50%; inconclusive means about -30% to -50%; inactive means above about -30%;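 further: stimulus is agonist 54-4 at its EC80 concentration; on the % scale 0 is the no-effect control and ±100 the full control effect; the text of the record puts the active cut at -80%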
#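 TRPML1-DL cells, Tet-induced overnight (~16 h, 37 °C) at 1,500 cells/well, were loaded with Ca8 no-wash dye plus quencher for 45-90 min at room temperature. Compounds were pinned during FDSS kinetic reading; agonist 54-4 at EC80 (4 uM final) then added.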
# gsp ag: activates gsp, the McCune-Albright syndrome mutation | gsp mutant cells, cAMP HTRF, 30 min; control for the full effect not named in the record | Potency, µM (series often up to 76.9 µM), inactives show at the top dose activation (cAMP increase), usual class: activators | 340,000 tested, 0.13% active | AID 624287; active = well fitted activation curve with a large enough effect; inconclusive = small, poorly fitted or top-dose-only effect, or another doubt; inactive = no such curve, though single readings can be large or run the other way; cell line not stated here;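 further: phosphodiesterase inhibitor Ro 20-1724 added with compounds to block cAMP breakdown; potency means the concentration at half of the fitted maximal effect; nearly all actives have a fitted effect of over 60% in size; about a fifth of the inactives were tested at one dose only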
#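 Cells stably selected in G418 were plated at 2000/well, grown 16-24 hr, then given compounds in DMSO with the PDE inhibitor […] (300 uM solution added) for 30 min at 37C; cAMP was read by HTRF.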
# * hit, by the source's call; u = inconclusive; x = not tested or not shown; & = joins results of further samples; [ ] = remark or other dose.
Molecule,gsp antagonist,Menin MLL FP FL,TRPML1 agonist,ClpP mod,TRPML1 inh,gsp ag
Nc1cc(N)nc(SCc2cc(=O)oc3cc4c(cc23)CCC4)n1,-26%,6.5,2.4,-2.6%,-4,-15%
CC(=O)c1ccc(N(CC(=O)Nc2cc(C)on2)S(=O)(=O)c2ccc(C)cc2)cc1,-6%,x,0.2,-1.2%,46,3%[15.4 µM]
Cc1cc(C)n2c(Nc3ccc4c(c3)OCCO4)c(-c3ccccc3)nc2n1,-25%,-1.0,-0.3&0.2,-3.9%&0.6%,-6&-4,-25%
COc1ccc(C)cc1NC(=O)c1cnc2ccc(C)cn2c1=O,x,x,-0.6,-4.9%,-9,x
CCOc1ccc(N(CC(=O)N/N=C/c2cc(Br)c(C)o2)S(C)(=O)=O)cc1,-1%,-1.5,0.8,x,4,14%[15.4 µM]
CCC1(c2ccc(Cl)cc2)NC(=O)N(CC(=O)NC2CCCC(C)C2C)C1=O (centres undefined),-4%,x,0.9,x,-12,-6%[15.4 µM]
Cc1ccc(-n2c(C)cc(C=C(C#N)C#N)c2C)cc1,-1%,-0.1,0.8,-2.3%,31,-86%[inhibitor]
C=CC[C@@H](CC(=O)NCCO)C(=O)N[C@@H](C)COC(=O)[C@@H](CC=C)Cc1ccc(F)cc1,7%,x,-0.1,0.1%,6,-3%
Cc1oc(-c2cccc(Cl)c2)nc1CN1CCC(C(=O)NCCCN2CCN(c3ccccc3F)CC2)CC1,x,x,2.3,-4.1%,-4,x
Cc1ccc(N(Cc2ccc(C(=O)Nc3ccccc3C(=O)NCc3ccco3)cc2)S(C)(=O)=O)cc1C,2%,-0.8,1.2,u,5,-1%
Cc1cc(C)cc(N(C(=O)c2csnn2)C(C(=O)NC2CCCCC2)c2ccccn2)c1 (centres undefined),-17%,5.3,2.3,0.4%,0,-1%[15.4 µM]
CC1(C(=O)NS(=O)(=O)Cc2ccccc2)CCN1C(=O)Cc1ccccc1 (centres undefined),x,x,-0.2,-0.8%,-25,x
COCCNC(=O)c1cccc(OC2CCN(Cc3ccc(C(=O)OC)cc3)CC2)c1,-3%,2.0,0.4,x,-4,-10%
CCOC(=O)C1CCCN(C(=O)CS(=O)(=O)Cc2ccccc2)C1 (centres undefined),3%,-0.1,-0.4,-0.8%,6,6%
CCCOc1ccc(C(=O)N(Cc2ccc(N(C)C)cc2)CC2CCCO2)cc1 (centres undefined),x,x,0.1,0.0%,-14,x
O=[N+]([O-])c1ccc(NC(=S)NCc2ccc(F)cc2)cc1,-8%,0.6,2.4,x,6,4%
CC12CN(NC(=O)c3ccc(Cl)cc3)C3(C#N)CC1CCC23C (centres undefined),-1%,-2.2,-1.1,-1.9%,6,-3%[15.4 µM]
Cc1cccc(Cn2c(=O)n(CC3CCC(C(=O)N4CCC(C)CC4)CC3)c(=O)c3sccc32)c1 (centres undefined),x,x,-0.2,1.0%,-14,x
CCOc1ccc(C)cc1S(=O)(=O)N1CCCCC1,-5%,0.3,-0.7,-3.2%,-4,0%
COc1ccc2c(CNC3CCCCCC3)c(C(=O)O)n(Cc3ccccc3F)c2c1,x,x,-0.9,u,25,x
CC[C@@H]1C(c2ccc(F)cc2)=NN(c2ccc(Br)cc2)[C@H]1C(=O)N1CCOC1=O,-15%,6.0,3.8,3.6%,56,x
S=C1Nc2cc(Cl)ccc2Sc2ccccc21,15%,3.5,0.5,1.5%,27,-2%
O=C(Cc1cccs1)Nc1ccc(C(=O)O)cc1,-18%,-2.0,-0.3,-0.3%,-4,u
O=C(CC(NC(=O)OCc1ccccc1)C(=O)O)OCc1ccccc1 (centres undefined),1%,7.1,0.8,0.3%,11,30%
CC(C)(C)C(=O)CN1CCN(S(=O)(=O)c2ccc(F)cc2)CC1,7%,-0.6,0.6,-0.5%,-3,6%
CC[C@]12C(=O)N(C)C[C@H]([C@@H]3C(=O)N(C)C(=O)[C@@H]31)N2C(=O)c1ccc(C)cc1,5%,x,-0.5,-3.2%,-3,-29%
CCCn1c(NCc2ccccc2NS(=O)(=O)c2ccc(C)cc2)nc2ccccc21,-20%,1.5,0.5,0.6%,-8,-7%
COc1cccc(C(=O)Nc2ccc(C(=O)c3ccncc3)cc2)c1,u,x,0.8,x,18,10%[15.4 µM]
COc1ccc(NC(=O)NC2CCCCCCC2)c(OC)c1,-6%,x,0.9,0.3%,2,-13%
COc1ccccc1NS(=O)(=O)c1ccc(C(=O)NCc2ccncc2)cc1,10%,x,-0.3,-3.4%,-2,u

# The list goes on, overlapping the part above by 2 compounds.
Molecule,gsp antagonist,Menin MLL FP FL,TRPML1 agonist,ClpP mod,TRPML1 inh,gsp ag
COc1ccc(NC(=O)NC2CCCCCCC2)c(OC)c1,-6%,x,0.9,0.3%,2,-13%
COc1ccccc1NS(=O)(=O)c1ccc(C(=O)NCc2ccncc2)cc1,10%,x,-0.3,-3.4%,-2,u
COc1cc(NC(=S)N2CCN(CCO)CC2)c(OC)cc1Cl,-5%,-0.1,-0.4,x,2,9%
CCOC(=O)COc1ncn(-c2ccccc2)n1,0%,1.1,-0.2,-1.3%,20,9%
CCC1CCC(C(=O)NNC(=O)OC)CC1 (centres undefined),-3%,0.0,0.8,1.5%,-12,-23%[15.4 µM]
COc1ccc(NC2=C(NC(C)=O)C(=O)c3ccccc3C2=O)cc1,u,4.7,-1.1,-1.7%,-9,2%[15.4 µM]
CC(=O)NCCCC(=O)NNC1CC(=O)N(c2cccc(Cl)c2)C1=O (centres undefined),0%,1.4,0.7,x,-5,2%[15.4 µM]
OCCc1ccc(O)c(-n2nc3ccccc3n2)c1,6%,2.6,-0.4,x,-23,-1%
Cc1cc(C)cc(OCC(=O)Nc2ccc(-c3nc4ccccc4s3)cc2)c1,x,x,-0.3,3.7%,1,x
CCOC(=O)N1CCN(C(=O)CSc2nc3nc(C)cc(C)n3n2)CC1,9%,x,0.1,-11%,-6,u
CC(C)C(=O)c1cc2c(cc1NC(=O)c1ccccc1F)OCCO2,x,x,6.8,-8.3%,-24,x
CC(C)=CC1C(C(=O)NCCc2ccccc2)C1(C)C (centres undefined),-1%,x,-0.4,0.1%,-2,-1%[15.4 µM]
O=C1CSC(c2ccccc2F)N1c1ccccc1 (centres undefined),-4%,2.6,-0.5,-2.1%,0,-8%
CCCSC1=C(C#N)C(c2ccc(O)c(OC)c2)CC(=O)N1 (centres undefined),0%,-1.1,-1.2,-3.5%,32,-59%[inhibitor]
COc1ccc(/C=C/c2cc(-c3ccc(C)cc3)o[n+]2C)cc1,3%,5.1,0.0,u,-13,-10%
Cc1nn(C2CCS(=O)(=O)C2)c(Cl)c1/C=C/C(=O)OCC(=O)c1c[nH]c2ccccc12 (centres undefined),u,7.0,0.8,3.2%,-16,8%
COc1ccc2oc(=O)c(-c3nc(C)cs3)cc2c1,-1%,5.1,0.2,-19%,-3,-2%
COc1ccc(-n2nnnc2SCC(=O)Nc2ccccc2F)cc1,8%,-5.0,-0.2,1.1%,-4,2%
O=C(C(NS(=O)(=O)c1cccs1)c1ccccc1)N1CCN(c2ccccc2)CC1 (centres undefined),-1%,4.3,1.9,-3.8%,37,13%
CCCCNS(=O)(=O)c1ccc2nc(SCC(=O)Nc3cc(C)cc(C)c3)[nH]c2c1,1%,6.5,4.4,-3.1%,-12,0%
CC1CC(C)CN(C(=O)COC(=O)c2c[nH]c3ccccc23)C1 (centres undefined),7%,x,1.2,-1.8%,-3,-15%
CC(C)c1ccc(NC(=O)c2cc(S(=O)(=O)N3CCc4ccccc4C3)ccc2F)cc1,x,x,-0.2,1.9%,5,x
C/C(=N/NC(=O)c1ccncc1)C1=C(O)CC(C)(C)CC1=O,-6%,-2.2,-0.3,x,12,2%[15.4 µM]
CC(=O)N1CCN(CC(O)COc2ccc(Br)cc2)CC1 (centres undefined),1%,-1.1,x,0.0%,x,-24%
CCOC(=O)c1c(-c2ccc(OC)cc2)csc1NC(=O)CNCc1ccco1,-27%,10,2.2,-17%,-9,-57%[inhibitor]
COC(=O)CN(c1ccc(C)c(Cl)c1)S(C)(=O)=O,-37%,5.4,-1.1,-1.0%,1,14%
O=C(NCc1ccc2c(c1)OCO2)C1CCC(=O)N1C1CCCCC1 (centres undefined),9%,4.0,-0.6,-0.6%,3,23%
CCOC(=O)c1cnc2nc(NCc3ccc(OCC)cc3)[nH]n2c1=O,x,x,-0.5,u,6,x
CCN(C(=O)CSc1nc2ccccc2n1CC(=O)NCc1ccc(OC)cc1)c1ccccc1,x,x,0.5,13%,4,x
Cc1ccc(-c2nnc(-n3nc(C)cc3C)c3ccccc23)cc1,35µM*,0.5,-0.2,-3.5%,21,2%
CC(C)C(=O)N1CCN(C2=NS(=O)(=O)c3ccccc32)CC1,-1%,0.2,-0.5,-0.6%,-1,34%
C/C(=N/NC(=O)c1cccnc1)C1=C(O)CC(C)(C)CC1=O,8%,-11,0.9,x,-4,11%

# The listing continues:
Molecule,gsp antagonist,Menin MLL FP FL,TRPML1 agonist,ClpP mod,TRPML1 inh,gsp ag
COc1cccc(NC(=O)C2CCN(S(=O)(=O)c3c(C)noc3/C=C/c3cccs3)CC2)c1,x,x,0.3,0.4%,-12,x
CCCCn1c(N)c(N(CCOC)C(=O)c2ccc(OCc3c(C)noc3C)cc2)c(=O)[nH]c1=O,1%,x,-0.8,-0.1%,-11,7%
COc1ccccc1C(=O)NCCC(=O)NCCOc1ccccc1,16%,-5.1,0.1,-1.0%,3,-70%[inhibitor]
CCOc1ccc(CNC(=O)C2CCN(Cc3cc4ccccc4n3Cc3ccccc3C)CC2)cc1,x,x,4.3,-7.9%,1,x
COc1ccc(CNC(=O)[C@@H](C)NC(=O)C2CCN(C(=O)[C@@H](N)CCSC)CC2)cc1,6%,-2.0,x,1.6%,x,x
CN1CCN(CCCc2c3c(cc4c2CCC4)CCC3)CC1,10%,2.9,-1.5,-0.7%,-9,u
O=C(N=C1SC2CS(=O)(=O)CC2N1c1ccc(F)cc1)C1CCCCC1 (centres undefined),-6%,x,-1.0,0.2%,-7,21%
COc1ccc(C2c3sc(=O)[nH]c3SC3C4CCC(C4)C23)cc1OC (centres undefined),1%[15.4 µM],-0.8,0.8,-0.7%,-3,3%
O=C(COc1ccccc1)Nc1sc2c(c1C(=O)NCc1cccnc1)CCCC2,-9%,0.3,-0.3,-0.7%,30,0%
